Bioassay records as filed in PubChem.
STK33 inh: inhibitors of purified STK33 kinase, primary screen, biochemical, ADP-Glo luminescence, homogeneous, cell-free. MBP phosphorylation. inhibition, % at 10 µM. hit rate 0.073% among 320,000. AID 2661, 2010. Serine/threonine-protein kinase 33 (Homo sapiens), Q9BYT3;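 active means inhibition at or above 25%, using the most active replicate where run in duplicate; inactive means inhibition below 25%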
Target sequence (Q9BYT3 whole entry, looked up): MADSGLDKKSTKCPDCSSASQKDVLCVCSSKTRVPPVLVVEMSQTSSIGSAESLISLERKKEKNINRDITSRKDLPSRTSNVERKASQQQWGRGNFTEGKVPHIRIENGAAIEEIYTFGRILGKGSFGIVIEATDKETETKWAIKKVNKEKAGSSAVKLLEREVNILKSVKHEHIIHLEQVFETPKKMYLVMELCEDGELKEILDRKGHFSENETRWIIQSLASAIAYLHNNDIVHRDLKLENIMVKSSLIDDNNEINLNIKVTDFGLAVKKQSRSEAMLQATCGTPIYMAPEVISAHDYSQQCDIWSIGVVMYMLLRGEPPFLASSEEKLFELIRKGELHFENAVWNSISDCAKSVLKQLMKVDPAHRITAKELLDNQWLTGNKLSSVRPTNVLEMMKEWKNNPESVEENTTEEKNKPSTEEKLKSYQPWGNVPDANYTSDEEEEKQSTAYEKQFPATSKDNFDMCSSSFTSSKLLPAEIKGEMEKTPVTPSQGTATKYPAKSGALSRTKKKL
Active calls of the source: *.

SMILES	STK33 inh
O=C(COC(=O)C1CC(=O)N(Cc2ccco2)C1)Nc1ccc(F)cc1F (stereo unspecified)	-2.1
Cc1ccc(CNC(=O)CN2C(=O)NC3(CCCC3)C2=O)cc1	0.9
O=C(COC(=O)[C@@H]1CCCN1C(=O)c1cccs1)Nc1cccc([N+](=O)[O-])c1	-0.2
CC1CCCC(C)N1C(=O)COc1cccc(Oc2ccccc2)c1 (stereo unspecified)	-1.2
C[C@H](CO)N1C[C@H](C)[C@@H](CN(C)C(=O)NC2CCCCC2)Oc2ccc(NS(C)(=O)=O)cc2C1=O	0.5
CSc1ccc(C2=CC(=O)C[C@H](c3ccc4c(c3)OCO4)C2)cc1	-1.4
CN(CC(=O)Nc1ccc(Cl)c(C(F)(F)F)c1)C(=O)c1cccc(N2C(=O)CCC2=O)c1	-0.7
CCCN(CC(=O)Nc1ccccc1C)C(=O)c1ccc(-c2ccc([N+](=O)[O-])cc2)o1	-0.3
C[C@H]1CN([C@@H](C)CO)C(=O)c2cccc(NC(=O)c3ccc(-c4nccs4)cc3)c2O[C@@H]1CN(C)C(=O)NC1CCCCC1	-0.5
COc1cccc(NC(=O)CN(C)C(=O)c2cc(-c3ccc(C)o3)nc3ccccc23)c1	0.1
Cc1oc(-c2cccc(Cl)c2)nc1CN1CCC(C(=O)N2CCN(c3ccccn3)CC2)CC1	-1.4
c1ccc(NC2=NCCN2CC2CCC2)cc1	-0.6
CC1CCCC(NC(=O)CSc2nnc(-c3cccnc3)n2N)C1C (stereo unspecified)	1.0
O=C(COC(=O)c1ccc([N+](=O)[O-])o1)NCc1ccc(F)cc1	0.8
COc1cc([C@@H]2CC=C(C(=O)O)[C@H](c3ccccc3)N2S(=O)(=O)c2ccc(C)cc2)cc(OC)c1OC	-1.4
CCN(CC(=O)Nc1ccc2c(c1)OCCO2)CC(=O)Nc1ccccc1C(F)(F)F	-0.5
O=C(NCC1CCCO1)c1cc([N+](=O)[O-])ccc1N1CCC(Cc2ccccc2)CC1 (stereo unspecified)	-1.4
COc1ccccc1NS(=O)(=O)c1ccc(C(=O)N2CCN(c3ccccc3)CC2)cc1	0.7
Cc1ccc(CNC(=O)CC(NC(=O)c2ccccc2)c2ccccc2)cc1 (stereo unspecified)	-2.1
CS(=O)(=O)c1ccc(Cl)c(NC(=O)C2CCN(S(=O)(=O)c3cccs3)CC2)c1	-1.3

Given with bars between the fields: entries from further up
Structure | STK33 inh
O=C(COC(=O)[C@@H]1CCCN1C(=O)c1cccs1)Nc1cccc([N+](=O)[O-])c1 | -0.2
Cc1ccc(CNC(=O)CN2C(=O)NC3(CCCC3)C2=O)cc1 | 0.9

Following part:
SMILES	STK33 inh
O=C(COC(=O)Cc1cccs1)NCC(=O)Nc1ccc(F)cc1	-2.0
CC(C)(C)OC(=O)C[C@@H]1C/C=C\C[C@@H](CC(=O)N(CCO)Cc2ccccc2)C(=O)N[C@H](Cc2c[nH]c3ccccc23)COC1=O	-0.4
O[C@H]1c2ccccc2[C@H](Cc2cncs2)[C@@H]1Br	0.4
C[C@H](NC(=O)c1[nH]cnc1C(=O)Nc1ccccc1)c1ccccc1	0.3
CC(C)(C)OC(=O)NCc1ccc(CNC(=O)c2nc[nH]c2C(=O)NCc2ccccc2)cc1	0.8
COc1ccc2c(c1)OC[C@H]1[C@H]2N2C(=O)CN(Cc3ccc(F)cc3)C(=O)[C@@]2(C)[C@H]1c1ccccc1	-1.6
O=C(CNC(=O)c1ccccc1F)NCCN1C(=O)S/C(=C\c2ccc3c(c2)OCO3)C1=O	-0.2
COC(=O)c1c(C)[nH]c(C(=O)C(C)OC(=O)c2c(C)noc2C)c1C (stereo unspecified)	1.1
CC(NC(=O)c1ccc(Br)o1)c1ccc(-n2ccnc2)cc1 (stereo unspecified)	-0.1
CC(NC(=O)CCNC(=O)c1ccc(C(C)(C)C)cc1)c1ccccc1 (stereo unspecified)	-0.3
CC1CCC2(CC1)NC(=O)N(NC(=O)CSc1nnc(NC3CC3)s1)C2=O (stereo unspecified)	-0.8
C[C@H](CO)N1C[C@H](C)[C@@H](CN(C)Cc2ccncc2)Oc2c(NC(=O)C3CCCCC3)cccc2C1=O	-0.5
O=C1C=C(c2ccc(Cl)c(C(F)(F)F)c2)C[C@@H](c2ccc(F)cc2)C1	-0.2
CCN1CCN(c2ccc(S(=O)(=O)N3CCOCC3)cc2NC(=O)CCSC)CC1	-0.6
O=C(CN1C(=O)NC2(CCCCCCC2)C1=O)Nc1ccc(Br)cc1Br	-1.7
O=C(Nc1ccc(Cl)c(C(F)(F)F)c1)c1ccco1	-1.4
Oc1cc(Cl)cc(Cl)c1Cl	1.1
Cc1cccc(-n2c(SCC(=O)NCC3CCCO3)nc3ccccc3c2=O)c1C (stereo unspecified)	0.3
COc1ccc(S(=O)(=O)Nc2cccc3c2O[C@H](CN(C)C(=O)Nc2ccc4c(c2)OCO4)[C@@H](C)CN([C@H](C)CO)C3=O)cc1	0.0
COc1ccc(-c2cc(C(=O)Nc3sc4c(c3C#N)CCCC4)c3ccccc3n2)cc1	-1.7
O=C(COC(=O)CCNS(=O)(=O)c1ccccc1)Nc1ccc(OC(F)F)cc1	-0.6
O=C(NCCOc1ccccc1Cl)c1ccc2c(c1)S(=O)(=O)c1cc(Cl)ccc1C2=O	-0.8
NS(=O)(=O)c1cccc(NC(=O)COC(=O)CN2C(=O)c3ccccc3C2=O)c1	0.6
O=C(OCc1ccc([N+](=O)[O-])cc1)C1CC(=O)N(Cc2ccccc2)C1 (stereo unspecified)	-2.6
C[C@H](CO)N1C[C@H](C)[C@@H](CN(C)C(=O)Nc2ccccc2)Oc2c(NS(=O)(=O)c3cccs3)cccc2C1=O	-0.8
Cc1ccc2c(c1)c(=O)c1c3n2CCN(C(=O)CCl)C3CC1 (stereo unspecified)	-1.2
CC1(C)C[C@@H]1C(=O)N/C(=C\CCCCSC[C@H](N)C(=O)O)C(=O)O	-1.0
O=C(CCCOc1ccccc1)Nc1cccc(S(=O)(=O)N2CCCCCC2)c1	-1.4
CCCCN1C(Nc2ccccc2)=NC[C@@H]1CC(C)C	-0.6
[O-]/[N+](=C\c1ccccc1)c1ccccc1	1.2
CSc1snc(SCC(N)=O)c1C#N	0.2
Cc1ccc(CN(C)C(=O)c2cccc(S(=O)(=O)N3CCCC3)c2)cc1	0.6
COc1ccc(C2=Nn3c(nnc3-c3ccccc3OC)SC2)cc1OC1CCOC1 (stereo unspecified)	0.4
O=C1CCc2cc(S(=O)(=O)NCCC(=O)NC3CCN(Cc4ccccc4)CC3)ccc2N1	-1.0
COc1ccccc1Nc1nnc(SCC(=O)NC2CC2)s1	0.0
Nc1scc2c(C(=O)O)nn(-c3ccccc3)c(=O)c12	-4.5
CCOC(=O)[C@@H]1[C@H]2COc3cc(OC)ccc3[C@@H]2N2C(=O)N(c3ccccc3)C(=O)[C@]12C	-0.4
O=C(NC(=O)c1cc([N+](=O)[O-])ccc1Cl)C1=C(N2CCCC2)COC1=O	1.0
C#CCOCCOCCOCCNc1nc(N2CCN(C(=O)CCCCCCCCCCNC(=O)[C@@H](CCSC)n3cc(CCO)nn3)CC2)nc(N2CCN(C(=O)CCCCCCCCCCNC(=O)[C@H](CCSC)n3cc(CCO)nn3)CC2)n1	2.7
COc1ccc(C(C)(C)C)cc1NC(=O)COC(=O)C1=NNC(=O)CC1	-0.8
O=C(CN1CCN(C(=O)c2c(F)cccc2F)CC1)Nc1ccccc1F	-0.4
CCCOC(=O)c1cc(-c2ccc(/C=C3/C(=O)N(C)C(=O)C(C#N)=C3C)o2)ccc1Cl	0.0
Cc1ccccc1-c1cc(C(=O)NCc2ccc3c(c2)OCO3)nn1CC1CC(c2cccc([N+](=O)[O-])c2)=NO1 (stereo unspecified)	0.2
COc1ccc(NS(=O)(=O)c2ccc(O)c([N+](=O)[O-])c2)cc1S(=O)(=O)N1CCCCC1	-1.1
CCOC(=O)[C@H]1[C@H]2COc3ccc(C)cc3[C@@H]2N2C(=O)c3ccc(C)cc3NC(=O)[C@@]12C	0.0
COc1ccc2oc(C(=O)N3CCN(S(=O)(=O)c4ccc(F)cc4)CC3)c(C)c2c1	-1.2
NC(=O)C1CCN(c2nc(-c3ccc4occc(=O)c4c3)cs2)CC1	0.2
Cc1[nH]c2ccccc2c1C(=O)CN1C(=O)C(=O)N(CCC2=CCCCC2)C1=O	0.2
CC1CCCC(C)N1C(=O)COC(=O)CNC(=O)c1ccccc1 (stereo unspecified)	-1.7
CCCCC(=O)OCc1c(-c2ccccc2)ncc2ccccc12	-1.7
CCOC(=O)Cn1c(=O)c2c(nc(N3CCCCC3)n2Cc2ccccc2)n(C)c1=O	-0.6
CCCC(=O)Nc1ccc(C(=O)COC(=O)C2CC2)cc1	-2.4
O=C1COc2ccc(C(=O)COC(=O)c3c(F)cccc3Cl)cc2N1	-2.2
Cc1ccc(NC(=O)C2CCN(S(=O)(=O)c3cc([N+](=O)[O-])ccc3Cl)CC2)nc1	0.5
Cc1ccc(NC(=O)CN(C)C(=O)C(Sc2ccccc2)c2ccccc2)cc1 (stereo unspecified)	-0.1
CCCn1c(=O)c2[nH]c(-c3ccc(S(=O)(=O)O)cc3)nc2n(CCC)c1=O	1.1
Cc1ccc(C(=O)N/N=C/c2ccc(S(=O)(=O)O)o2)c(Cl)c1	-0.3
Nc1c(Cl)c(Cl)nc(C(=O)OCC(=O)NCc2ccccc2)c1Cl	0.2
COCCN(Cc1ccccc1)C(=O)c1cccc(S(=O)(=O)N2CCCc3ccccc32)c1	-0.2
O=C(COC(=O)CNC(=O)c1ccccc1)NC1CCCCC1	-2.3

(listing goes on)
SMILES	STK33 inh
O=C(COC(=O)COc1ccccc1[N+](=O)[O-])NC1CCCCC1	1.5
COc1ccc(-c2nc(SC(C)C(=O)c3c(N)n(C)c(=O)n(C)c3=O)n[nH]2)cc1 (stereo unspecified)	2.0
CCN(c1ccccc1)S(=O)(=O)c1ccc(C(=O)Nc2cccc(NC(C)=O)c2)cc1	-0.2
O=C(NCc1ccccc1)c1ccc2c(c1)S(=O)(=O)c1cc(Cl)ccc1C2=O	0.2
Cc1ccc(C(=O)COC(=O)CCNS(=O)(=O)c2ccccc2F)cc1	-1.3
O=C(CCNC(=O)c1ccc([N+](=O)[O-])cc1)NNC(=O)c1ccccc1F	-0.1
CCOc1ccc(S(=O)(=O)NCCc2ccccn2)cc1	-3.9
CC(C)(C)C1CCc2c(sc(NC(=O)c3ccco3)c2C(N)=O)C1 (stereo unspecified)	0.6
COc1ccc(-c2c(-c3ccc(C#N)cc3)oc(=O)c3cc(OC)c(OC)cc23)cc1	0.3
O=C(COC(=O)c1c[nH]c2ccccc12)NC1CCCCC1	-1.1
C=CC[C@H](CC(=O)N(CCO)Cc1ccccc1)C(=O)N[C@H](COC(=O)[C@@H](CC=C)CC(=O)OC(C)(C)C)Cc1ccccc1	-2.0
CCN(CC(=O)Nc1ccc(NC(C)=O)cc1)C(=O)/C=C/c1ccc(C)o1	0.7
COc1ccc([C@H]2CC(=O)C=C(c3ccc(C)c(F)c3)C2)cc1	-0.3
CC1CC(C)CN(C(=O)COC(=O)c2ccc(S(=O)(=O)N(C)c3ccccc3)cc2)C1 (stereo unspecified)	0.9
O=C(Nc1ccc(N2CCCCC2)c(S(=O)(=O)Nc2ccccc2Cl)c1)c1cccnc1	-1.1
CC(=O)C[C@H](O)CC(=O)[C@H]1OC(=O)CCCCC/C=C/Cc2ccccc21	-0.8
CCOC(=O)[C@H]1[C@H]2COc3ccc(Cl)cc3[C@@H]2N2C(=O)c3cc(Br)ccc3NC(=O)[C@@]12C	0.6
NNC(=O)c1cc(NS(=O)(=O)c2cccs2)cc(NS(=O)(=O)c2cccs2)c1	1.0
CCCn1c(N)c(C(=O)COC(=O)/C=C/c2ccc(OC(F)F)c(OC)c2)c(=O)[nH]c1=O	-2.2
Cc1ccc(C2=NN(C(=O)CSc3nnnn3C)C(c3ccco3)C2)cc1 (stereo unspecified)	1.1

Individual results from above:
O=C(NCc1ccccc1)c1ccc2c(c1)S(=O)(=O)c1cc(Cl)ccc1C2=O in STK33 inh has 0.2
CCCn1c(N)c(C(=O)COC(=O)/C=C/c2ccc(OC(F)F)c(OC)c2)c(=O)[nH]c1=O in STK33 inh has -2.2
Cc1ccc(C2=NN(C(=O)CSc3nnnn3C)C(c3ccco3)C2)cc1 (stereo unspecified) in STK33 inh has 1.1
CC(=O)C[C@H](O)CC(=O)[C@H]1OC(=O)CCCCC/C=C/Cc2ccccc21 in STK33 inh has -0.8
COc1ccc(-c2nc(SC(C)C(=O)c3c(N)n(C)c(=O)n(C)c3=O)n[nH]2)cc1 (stereo unspecified) in STK33 inh has 2.0
C=CC[C@H](CC(=O)N(CCO)Cc1ccccc1)C(=O)N[C@H](COC(=O)[C@@H](CC=C)CC(=O)OC(C)(C)C)Cc1ccccc1 in STK33 inh has -2.0

Later entries
SMILES	STK33 inh
COc1ccc(S(=O)(=O)Nc2cccc3c2O[C@H](CN(C)Cc2ccncc2)[C@@H](C)CN([C@H](C)CO)C3=O)cc1	0.6
CC(OC(=O)c1ccc(O)cc1)C(=O)Nc1nc(-c2ccccc2)cs1 (stereo unspecified)	1.2
Cc1ccc(NC(=O)CN2C(=O)NC(C)(CC(C)C)C2=O)cc1F (stereo unspecified)	0.3
COc1ccc([N+](=O)[O-])cc1NS(=O)(=O)c1cc(C(=O)N2CCN(C)CC2)ccc1OC	-1.0
CC(C(=O)N1CCCC1)N1CCN(S(=O)(=O)c2ccc(C(C)(C)C)cc2)CC1 (stereo unspecified)	0.2
C[C@H](CO)N1C[C@H](C)[C@@H](CN(C)C(=O)Nc2ccccc2)Oc2c(NC(=O)Nc3ccc4c(c3)OCO4)cccc2C1=O	-1.1
Cc1ccc(S(=O)(=O)N2CCCCC2)cc1NS(=O)(=O)c1ccccc1F	-0.3
CC(=O)Nc1ccc(C2=CC(=O)C[C@H](c3ccc4c(c3)OCO4)C2)cc1	6.2

Sorted by the number under STK33 inh (largest number first): three of the compounds above
canonical_smiles	STK33 inh
Cc1cccc(-n2c(SCC(=O)NCC3CCCO3)nc3ccccc3c2=O)c1C (stereo unspecified)	0.3
Cc1ccc(C(=O)N/N=C/c2ccc(S(=O)(=O)O)o2)c(Cl)c1	-0.3
C[C@H]1CN([C@@H](C)CO)C(=O)c2cccc(NC(=O)c3ccc(-c4nccs4)cc3)c2O[C@@H]1CN(C)C(=O)NC1CCCCC1	-0.5

These rows are one share of the data, and most or all hits are left out here.
